Compound activity deposited in PubChem by National Center for Advancing Translational Sciences (NCATS).
GLA inh pH 4.5: blocks human alpha-galactosidase A at pH 4.5; P06280; purified enzyme, 4-MU-alpha-Gal fluorescence, pH 4.5; activity change, negative = inhibition, % at 105 µM; 230,000 tested, under 10 active; inconclusive = small, poorly fitted or top-dose-only inhibition, or a rising curve; inactive = flat fitted curve, though single readings scatter; no compound was filed as active;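 also: 0% = full activity with enzyme and -100% = basal without enzyme; dose as in the result columns while the protocol names 77 µM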
Rango complex inh: prevents formation of the Rango-importin beta complex; Potency, µM (titrated, usually from 92.2 µM), inactives show at the highest dose inhibition of complex formation; AID 540263; Rango CFP/YFP FRET sensor + importin beta, 45 min; 340,000 compounds, 0.031% hits; Q14974; active = rising FRET ratio curve, often small or poorly fitted; inconclusive = mostly compound fluorescence or quenching in the first reads; inactive = flat curves in all reads;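 also: potency is read from the fitted curve at half-maximal effect; 0% = DMSO wells and 100% = buffer wells lacking importin beta; nearly all actives have a fitted effect of over 15% in size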
Target sequence (Q14974 whole entry, looked up): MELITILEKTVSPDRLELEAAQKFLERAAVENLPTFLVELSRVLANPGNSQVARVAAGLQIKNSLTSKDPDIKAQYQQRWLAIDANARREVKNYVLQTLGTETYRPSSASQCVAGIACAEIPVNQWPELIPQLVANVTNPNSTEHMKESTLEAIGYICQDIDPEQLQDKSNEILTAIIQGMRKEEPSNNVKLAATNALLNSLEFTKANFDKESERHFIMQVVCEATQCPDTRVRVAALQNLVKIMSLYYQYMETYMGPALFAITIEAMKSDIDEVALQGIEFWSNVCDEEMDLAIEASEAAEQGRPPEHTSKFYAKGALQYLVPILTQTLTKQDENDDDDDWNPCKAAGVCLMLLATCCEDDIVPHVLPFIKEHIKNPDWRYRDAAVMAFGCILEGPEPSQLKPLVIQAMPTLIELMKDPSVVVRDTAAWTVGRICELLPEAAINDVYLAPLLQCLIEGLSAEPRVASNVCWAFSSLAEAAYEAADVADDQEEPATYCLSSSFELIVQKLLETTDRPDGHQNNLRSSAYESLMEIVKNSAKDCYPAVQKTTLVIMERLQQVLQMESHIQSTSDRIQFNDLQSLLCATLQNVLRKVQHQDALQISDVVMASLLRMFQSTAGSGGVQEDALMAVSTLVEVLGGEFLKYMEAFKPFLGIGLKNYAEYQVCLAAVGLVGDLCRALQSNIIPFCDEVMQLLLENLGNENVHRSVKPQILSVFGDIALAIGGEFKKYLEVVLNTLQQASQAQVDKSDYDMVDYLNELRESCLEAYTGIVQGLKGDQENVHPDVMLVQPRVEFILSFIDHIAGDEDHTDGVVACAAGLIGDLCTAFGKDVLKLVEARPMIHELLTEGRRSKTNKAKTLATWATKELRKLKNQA
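FRET biosensor Rango (snurportin 1 IBB between N-terminal EYFP and C-terminal Cerulean), 50 nM in PBS/1 mM DTT/0.02% Tween-20/0.1% BSA, preincubated 5 min RT with compound; 0.125 microM importin beta added, 45 min RT, CFP/YFP FRET ratio read.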
miR-21 FLuc: raises the signal of a miR-21 reporter; HeLa miR-21 FLuc reporter, luciferase, 48 h; Potency, µM (top dose mostly 38.3 µM), for the others: at the top dose reporter change, positive = more light; 340,000 tested, under 10 active; AID 2288; active = well fitted rising curve with a large enough effect; inconclusive = small, poorly fitted or top-dose-only effect; inactive = no such curve, though single readings can be large or run the other way;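 also: % of control where 0% means no effect; miR-21 action dims this reporter so a rising signal means less miR-21 action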
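HeLa cells stably expressing CMV-driven firefly luciferase with a downstream miR-21 binding sequence, endogenously expressing miR-21, were treated with titrations (up to about 40uM final) for 48 hours at 37 degree Celsius. Luciferase luminescence was read after lysis.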
Rango release inh: inhibition of RanGTP-driven Rango-importin beta dissociation; AID 540253; Potency, µM (highest dose often 46.1 µM), for the others: top-dose activity change, negative = inhibition; Biochemical FRET Rango-importin beta, RanGTP-induced dissociation; O95149+P62826; 340,000 compounds, 0.071% hits; active means falling FRET ratio curve, often poorly fitted, with flat reads before Ran was added; inconclusive means other falling curves, or compound fluorescence or quenching; inactive means flat or rising ratio curve;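 also: potency is read from the fitted curve at half-maximal effect; % of control where 0% means no effect; nearly all actives have a fitted effect of over 45% in size; -100% = wells without RanGTP and RCC1; the record marks most hits as doubtful in a second field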
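FRET read at 45 min, room temperature: inhibitors block the CFP/YFP signal rise when RanGTP (0.6 uM Ran, 2 mM GTP, 0.2 uM RCC1) frees Rango (0.1 uM) from importin beta (0.25 uM). Pre-read after 5 min compound exposure flags interference.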
* hit, by the source's call; ? = inconclusive; / = no result given; & = joins results of further samples.

SMILES	GLA inh pH 4.5	Rango complex inh	miR-21 FLuc	Rango release inh
CC(=O)c1sc(N/N=C\c2c(O)ccc3ccccc23)nc1C	/	?	/	?
CCN(CC(=O)Nc1ccccc1C(F)(F)F)C(=O)c1ccccc1OCc1ccc(F)cc1	/	2.7%	/	0%
CCCC(=O)Nc1cc(C)c(NC(=O)c2ccccn2)cn1	-7	0.0%	-34%	-15%
CC(NC(=O)Cc1cccs1)C(c1cccs1)N1CCN(c2ccccc2F)CC1 (stereo not drawn)	-23	3.7%	5%	0%
Cc1cc(NS(=O)(=O)c2ccccc2)c(C)c(Cl)c1O	0	-0.5%	-6%	-6%
C=CCNC(=S)NNC(=O)c1cccn(Cc2cccc(Cl)c2)c1=O	-5	-2.1%	-18%	8%
CCNC(=O)COC(=O)/C=C/c1cccs1	-1	1.5%	0%	0%
CCOC(=O)/C(=N\Nc1ccccc1[N+](=O)[O-])c1csc(N)n1	3	1.3%	-15%	2%
CN(C)S(=O)(=O)c1ccc(N2CCCC2)c(C(=O)Nc2ccccc2Br)c1	/	-1.2%	/	4%
Cn1c(=O)c2c(nc(NCCc3ccccc3)n2Cc2ccccc2)n(C)c1=O	-4	-0.8%	10%	9%
CCOC(=O)c1[nH]c2ccc(C)cc2c1N=CN(CC)CC	-2	-0.5%	-24%	-2%
C=CCc1ccc(OCc2ccc(C(=O)OC)o2)c(OC)c1	-4	0.0%	-55%	37%
CCOC(=O)C[C@H]1c2cc(C(F)(F)F)ccc2S(=O)(=O)N1Cc1ccccc1	/	-2.0%	/	16%
COc1ccc([N+](=O)[O-])cc1NC(=O)COC(=O)Cc1cc(OC)c(OC)c(OC)c1	4	-1.1%	-10%	3%
Cc1cc(Nc2nc3ccccc3nc2Cl)n(-c2ccccc2)n1	-4	-3.0%	30%	-16%
CC(C)CN1CCNC(=O)C1CC(=O)NCCc1cnn(-c2ccccc2)c1 (stereo not drawn)	6	1.0%	-2%	-9%
c1ccc(COc2ncnc3c2ncn3CCCNCc2ccccn2)cc1	/	0.1%	/	3%
Cc1ccc(-n2c(C)cc(C(=O)NS(=O)(=O)c3ccc(C)cc3)c2C)cc1	-1	0.0%	-1%	-1%
COc1ccc(-c2[nH]n(-c3ccc([N+](=O)[O-])cc3)c(=O)c2C=NCc2ccc(F)cc2)cc1	-6	-0.1%	-2%	-18%
c1csc(-c2nnc(N3CCOCC3)c3ccccc23)c1	-1	0.0%	-24%	22%
COc1ccc(OCC(=O)Nc2nc3c(s2)CCCC3)cc1	/	-2.0%	-21%	1%
COc1ccc(C(=O)NNC(=O)c2ccccc2[N+](=O)[O-])cc1	2	-0.3%	-39%	13%
O=C(c1cccc(C(F)(F)F)c1)C1CCCN(C(=O)CCn2cnnn2)C1 (stereo not drawn)	-3	-1.3%	-2%	-5%
COC(=O)C1=C(C)N(CCCC(=O)O)C(=O)NC1c1cccc2ccccc12 (stereo not drawn)	/	-0.6%	/	-4%
Cn1cc(Cl)c(C(=O)Nc2cnn(Cc3ccc(F)cc3)c2)n1	5	?	-14%	-2%
CCOC(=O)COc1ccccc1-c1ccno1	1	4.2%	-2%	-10%
O=[N+]([O-])c1cc(-c2nnc(Nc3ccc(O)cc3)c3ccccc23)ccc1N1CCOCC1	-4	0.3%	?	-1%
CCn1c(NCc2cc(Br)ccc2NS(=O)(=O)c2ccc(C)cc2)nc2ccccc21	3	-0.9%	23%	10%
CCC(C(=O)N1CCN(S(=O)(=O)c2ccc(F)cc2)CC1)c1ccccc1 (stereo not drawn)	/	1.1%	/	-6%
O=C(Nc1ccccc1C(=O)N/N=C/c1ccco1)c1ccc(F)cc1	-8	-2.1%	-18%	-1%

Two entries drawn at random from those above:
SMILES	GLA inh pH 4.5	Rango complex inh	miR-21 FLuc	Rango release inh
O=C(Nc1ccccc1C(=O)N/N=C/c1ccco1)c1ccc(F)cc1	-8	-2.1%	-18%	-1%
COc1ccc(OCC(=O)Nc2nc3c(s2)CCCC3)cc1	/	-2.0%	-21%	1%

(cont.)
SMILES	GLA inh pH 4.5	Rango complex inh	miR-21 FLuc	Rango release inh
COCC(=O)/C=C1\Sc2ccccc2N1C	-11	3.5%	-23%	-7%
CCN(CC(=O)Nc1ccc(OC)cc1)C(=O)c1cc([N+](=O)[O-])ccc1N1CCOCC1	/	0.6%	/	-2%
O=C(NCC1CCCO1)C(=O)N/N=C/c1c(F)cccc1Cl (stereo not drawn)	/	-4.7%	0%	2%
COc1ccc(-c2cc(C3CCN(Cc4cccc(C(F)(F)F)c4)CC3)[nH]n2)cc1	-16	-1.7%	?	13%
CCCn1c(=N)c(C(=O)NCc2ccc3c(c2)OCO3)cc2c(=O)n3cccc(C)c3nc21	-7	?	-7%	-6%
CC(=O)c1ccc(-n2c(CCC(=O)O)ccc2-c2cccs2)cc1	-22	?	-15%&-12%	1%
Cc1cc(C)nc(N2CCCC(C(=O)NCCc3cccc(F)c3)C2)n1 (stereo not drawn)	-6	0.0%	-9%	15%
CCOC(=O)CNC(=O)N1c2ccccc2Sc2ccccc21	0	-3.0%	-1%	10%
O=C(NCc1nc(-c2ccc(C(F)(F)F)cc2)no1)Nc1cc(Cl)cc(Cl)c1	-5	0.6%	?	1%
CC(C)(C)NC(=O)CN(Cc1cccnc1)C(=O)c1csnn1	-2	-1.0%	-5%	10%
OC(CNc1nc2ccccc2s1)c1ccccc1 (stereo not drawn)	-4	0.2%	-30%	-7%
Cc1cc(=O)[nH]c(NN=C2C3CC4CC(C3)CC2C4)n1	-1	0.3%	-26%	12%
COc1ccc(CC2(CO)CCN(Cc3cc4ccccc4o3)CC2)cc1	-14	-1.3%	10%	9%
O=C(COc1ccc(Oc2ccccc2)cc1)NCc1cn2ccccc2n1	1	-1.3%	20%	-8%
Cc1nn(CC2CC2)c(=O)n1-c1cccc(Cl)c1	-27	-0.9%	-2%	8%

Shown as comma-separated lines: entries from further up
molecule,GLA inh pH 4.5,Rango complex inh,miR-21 FLuc,Rango release inh
COc1ccc(C(=O)NNC(=O)c2ccccc2[N+](=O)[O-])cc1,2,-0.3%,-39%,13%
O=C(c1cccc(C(F)(F)F)c1)C1CCCN(C(=O)CCn2cnnn2)C1 (stereo not drawn),-3,-1.3%,-2%,-5%
COC(=O)C1=C(C)N(CCCC(=O)O)C(=O)NC1c1cccc2ccccc12 (stereo not drawn),/,-0.6%,/,-4%
Cn1cc(Cl)c(C(=O)Nc2cnn(Cc3ccc(F)cc3)c2)n1,5,?,-14%,-2%
CCOC(=O)COc1ccccc1-c1ccno1,1,4.2%,-2%,-10%
O=[N+]([O-])c1cc(-c2nnc(Nc3ccc(O)cc3)c3ccccc23)ccc1N1CCOCC1,-4,0.3%,?,-1%
CCn1c(NCc2cc(Br)ccc2NS(=O)(=O)c2ccc(C)cc2)nc2ccccc21,3,-0.9%,23%,10%
CCC(C(=O)N1CCN(S(=O)(=O)c2ccc(F)cc2)CC1)c1ccccc1 (stereo not drawn),/,1.1%,/,-6%
O=C(Nc1ccccc1C(=O)N/N=C/c1ccco1)c1ccc(F)cc1,-8,-2.1%,-18%,-1%
COCC(=O)/C=C1\Sc2ccccc2N1C,-11,3.5%,-23%,-7%
CCN(CC(=O)Nc1ccc(OC)cc1)C(=O)c1cc([N+](=O)[O-])ccc1N1CCOCC1,/,0.6%,/,-2%
O=C(NCC1CCCO1)C(=O)N/N=C/c1c(F)cccc1Cl (stereo not drawn),/,-4.7%,0%,2%
COc1ccc(-c2cc(C3CCN(Cc4cccc(C(F)(F)F)c4)CC3)[nH]n2)cc1,-16,-1.7%,?,13%

Next part
SMILES	GLA inh pH 4.5	Rango complex inh	miR-21 FLuc	Rango release inh
CCNc1nc(SCC(=O)Nc2ccccc2)nc(N2CCOCC2)n1	/	-1.1%	-14%	9%
CN(C)S(=O)(=O)N1CCN(c2ccc([N+](=O)[O-])cc2)CC1	-4	-0.4%	-2%	0%
CCc1cccc(CC)c1NC(=O)C1SC(=Nc2ccccc2C)C(c2nc3ccccc3s2)=C1N (stereo not drawn)	-1	0.0%	12%	-22%
Nc1ccn(C2OC(COP(=O)(O)O)C(O)C2O)c(=O)n1 (stereo not drawn)	/	0.3%	/	0%
COc1ccc(NC(=O)CCNS(=O)(=O)c2ccc3c(c2)CC(C)N3C(=O)C2CC2)cc1 (stereo not drawn)	/	0.3%	4%	6%
Cc1cccc(C)c1NC(=O)CN(C)C(=O)C1CC(=O)N(c2cccc3ccccc23)C1 (stereo not drawn)	/	2.5%	/	7%
COc1cc(CC(=O)Nc2ccc(N3CCOCC3)cc2)cc(OC)c1OC	-1	-5.8%	0%	16%
COc1cccc(-c2nnc(NC(=O)c3cccs3)s2)c1	5	-0.3%	-32%	-13%
CN(C(=O)COC(=O)CNC(=O)c1ccc(C(C)(C)C)cc1)c1c(N)n(Cc2ccccc2)c(=O)[nH]c1=O	/	4.2%	/	-1%
O=C(N/N=C/c1cccnc1)c1cc(-c2ccc(Br)cc2)nc2ccccc12	/	0.5%	15%	1%
COc1ccc(-c2ccc(N(C)C)cc2)cc1[C@H]1[C@@H]2C=CCC[C@@]2(C)C(=O)N1Cc1ccccc1	-1	-1.0%	10%	-16%
CCCNC(=O)COC(=O)c1cc2c(=O)n3ccccc3nc2s1	?	0.4%	-12%	-7%
O=C(COC(=O)C1=Cc2ccccc2OC1)NCc1ccco1	-26	5.4%	2%	22%
CCc1ccc(C(=O)CN2C(=O)NC(C)(c3ccc(C)cc3)C2=O)cc1 (stereo not drawn)	-1	-0.6%	-2%	13%
O=C(/C=C/c1ccccn1)c1ccc(Br)cc1O	-1	-5.1%	-17%	-17%
COc1ccc(CN(C(=O)c2nsc(Cl)c2Cl)C(C(=O)NC2CCCCC2)c2ccc(OC)cc2)cc1 (stereo not drawn)	-2	-0.1%	8%	-5%
CC(=O)NC1(c2ccc(F)cc2)CCN(C(=O)Nc2ccc(F)cc2F)CC1	-14	-3.4%	-5%	-8%
CCC(C)n1c(SCC(=O)Nc2cc(C(C)(C)C)nn2-c2ccccc2)nc2ccccc2c1=O (stereo not drawn)	-9	-2.1%	16%	7%
COc1cc(/C=C2\C(=O)N(C)C(=S)N2C)ccc1O	-7	?	-6%	?
Cn1c(=O)c2c(ncn2CC(=O)OCC(=O)Nc2ccc(F)cc2Cl)n(C)c1=O	/	-4.2%	/	9%
CC1CCN(S(=O)(=O)c2ccc(C(=O)NNC(=O)C3CC3)cc2)CC1	3	-0.4%	-2%	-12%
O=[N+]([O-])c1ccc(N/N=C/c2cccc(O)c2)cc1	/	?	-27%	?
Cc1ccc(C(=O)/C=C/c2cc(C#N)n(C)c2C)cc1	/	?	-18%	-8%
O=C(NCCCN1CCOCC1)C1COc2ccccc2O1 (stereo not drawn)	4	0.2%	-2%	-4%
CCc1nn(CCCC(=O)N2CCc3ccccc3C2)c(=O)c2cc3occc3n12	-1	-1.4%	-15%	-7%
CC(C)(C)n1nnnc1CN1CCC(NC(=O)NC2CCCCC2)CC1	-4	-3.0%	0%	4%
CCOc1ccc(S(=O)(=O)N2CCC(C(=O)NCc3ccncc3)CC2)cc1Cl	/	-3.7%	-6%	4%
O=C(c1ccc(CSc2ccc(Cl)cc2)cc1)N1CCCC1	-2	1.7%	-34%	1%
NNC(=O)c1ccc(COc2cccc3ccccc23)o1	2	-3.4%	3%	-11%
CC(C)CCNC(=O)CCc1nnc(Cc2c[nH]c3ccccc23)o1	-1	1.1%	4%	9%
COc1ccc(CN2CCOCCOCCOCCOCCOCC2)cc1	2	3.9%	3%	6%
COC(=O)Cc1nc(NC(=O)c2cccs2)sc1C	/	1.1%	-42%	1%
CCOC(=O)[C@@H]1[C@H]2COc3ccc(Br)cc3[C@@H]2N2C(=O)N(c3ccc(Br)cc3)C(=O)[C@@]12C	/	?	/	2%
COc1ccc(OC)c(S(=O)(=O)Nc2ccc(-c3ccc4nncn4n3)cc2)c1	/	-0.4%	/	-12%
CC(C)(C)NS(=O)(=O)c1ccc(OCC(=O)NCC2CCCO2)cc1 (stereo not drawn)	/	-3.0%	/	2%
NS(=O)(=O)c1ccc(CCNCc2cccs2)cc1	3	-4.0%	1%	1%
O=C1CC(=O)N(CCc2ccccc2)C(=O)N1CCc1ccccc1	-7	-0.1%	-2%	-1%
CCOc1cc(NC(=O)Nc2ccc(F)cc2)c(OCC)cc1NC(=O)CC	/	-0.6%	5%	-1%

Only part of the results is shown, so the mix of outcomes need not match the whole.
